Screening results (PubChem)
PD-1 reversal – reversal of PD-1 mediated T-cell inhibition. primary human CD4 T cells, PD-L1 beads, CellTiter-Glo 96 h. activation, % (concentration not given with the values). 29,000 tested, under 10 active;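 active means replicate mean of 50% or more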;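 further: 0% = median vehicle wells and 100% = positive control; 100 nL library stock added to about 50 µL; numbers are from one replicate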
YB-1 expression – YB-1 expression inhibition; 30,000 tested, 0.37% active; delta delta Cp (YB-1 minus CDIP) (concentration not given with the values); AID 434959; U2OS, qRT-PCR YB-1 vs CDIP delta delta Cp, 16 h; hits give high values; zero = DMSO, each unit about twofold;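 active means delta delta Cp rounded down to an integer at or above 3, about 3 SD of DMSO wells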;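 further: higher means less YB-1 transcript or more CDIP transcript relative to DMSO; stock transfer was 100 nL into about 100 µL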
MITF inh – blocks MITF activity | TRPM1 promoter luciferase, luminescence, 24 h | inhibition, % (test concentration not listed) | 37,000 tested, 0.28% active | AID 2240;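 active means most replicates at 85% or more, or half of them and the mean; inconclusive means half reach 85% but not the mean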;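 further: human melanocyte line stably carrying TRPM1 promoter luciferase reporter; 0% = vehicle wells and 100% = a positive control; the first replicate is given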
Shh pathway inh – Sonic Hedgehog pathway inhibition. Shh-LIGHT2 Gli-luciferase reporter, 30 h. inhibition, % (concentration not given with the values). 22,000 tested, 2.1% active;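 active means replicate mean of 65% or more; inconclusive means mean lower but half the replicates past it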;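 further: pathway switched on by Shh-conditioned medium diluted 1 in 25 in low serum; 100 nL library stock added to about 40 µL; 0% = median of neutral wells and 100% = positive control level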
Starred values were filed as active, the others as inactive; ? = inconclusive; . = no result given; & = joins results of further samples. An excerpt; the hit share may differ from the screen's.

SMILES	PD-1 reversal	YB-1 expression	MITF inh	Shh pathway inh
C[C@@H]1CN([C@H](C)CO)C(=O)c2cc(NS(=O)(=O)c3cccs3)ccc2O[C@@H]1CN(C)C(=O)Nc1ccc2c(c1)OCO2	0.9	-0.144	-11.5	.
C[C@H](CO)N1C[C@H](C)[C@@H](CN(C)Cc2ccc3c(c2)OCO3)Oc2ccc(NS(C)(=O)=O)cc2C1=O	0.2	0.0618	6.6	-14.1
C[C@@H]1CN([C@@H](C)CO)C(=O)c2cccc(NS(=O)(=O)c3cn(C)cn3)c2O[C@H]1CN(C)C(=O)Nc1cccc2ccccc12	1.7	-0.193	6.6	-7.0
Cc1ccc(-c2nnc3c4ccccc4c(C)nn23)cc1S(=O)(=O)NCc1cccnc1	-1.9	.	-3.0	.
C[C@@H]1CN([C@H](C)CO)C(=O)Cc2cc(NC(=O)Nc3ccccc3)ccc2O[C@@H]1CN(C)C(=O)Nc1ccc(F)cc1	.	0.00086	-0.3	18.8
Clc1cccc(Cl)c1NC1=NCCN1	-0.7	0.468&0.11	-4.1&2.7	-52.3&-18.7
Cc1ccc(NC(=O)CN(c2cccc(F)c2)S(C)(=O)=O)cc1	-1.0	.	-13.5	.
CC(C)NC(=O)N(C)C[C@H]1Oc2c(NC(=O)Nc3ccc(C(F)(F)F)cc3)cccc2C(=O)N([C@@H](C)CO)C[C@@H]1C	.	0.0291	-27.1	37.6
CCCN(C)C[C@@H]1OCCCC[C@@H](C)Oc2ccc(NC(=O)Nc3ccc(C(F)(F)F)cc3)cc2C(=O)N([C@H](C)CO)C[C@@H]1C	1.0	0.44	-2.9	-13.1
Cc1ccc(CN(CC(=O)O)S(=O)(=O)c2c(C)cc(C)cc2C)cc1	2.6	.	-44.8	.
Cc1noc(C)c1NC(=O)N(C)C[C@H]1OCCCC[C@@H](C)Oc2ccc(NC(=O)CCC(F)(F)F)cc2C(=O)N([C@H](C)CO)C[C@@H]1C	1.0	-0.364	-8.5	-18.1
C[C@@H]1CN([C@H](C)CO)C(=O)c2cc(NC(=O)CCN3CCOCC3)ccc2O[C@@H]1CN(C)C(=O)Nc1ccc(C(F)(F)F)cc1	0.6	0.148	-8.3	-15.6
C[C@@H]1CN([C@H](C)CO)C(=O)c2cc(NC(=O)NC3CCCCC3)ccc2O[C@@H]1CN(C)Cc1ccncc1	1.4	-0.219	1.2	17.2
COc1cc2cc(C)nc(Cc3cccc4ccccc34)c2cc1OC	-1.8	0.116	17.8	?
Cc1ccc(S(=O)(=O)N(CC(=O)O)c2ccc(C)c(C)c2)cc1	2.3	.	-15.8	.

Nothing new here: two of the compounds above.
SMILES	PD-1 reversal	YB-1 expression	MITF inh	Shh pathway inh
COc1cc2cc(C)nc(Cc3cccc4ccccc34)c2cc1OC	-1.8	0.116	17.8	?
Cc1ccc(S(=O)(=O)N(CC(=O)O)c2ccc(C)c(C)c2)cc1	2.3	.	-15.8	.

Entries shown so far with a COOH group:
SMILES	PD-1 reversal	YB-1 expression	MITF inh	Shh pathway inh
Cc1ccc(CN(CC(=O)O)S(=O)(=O)c2c(C)cc(C)cc2C)cc1	2.6	.	-44.8	.
Cc1ccc(S(=O)(=O)N(CC(=O)O)c2ccc(C)c(C)c2)cc1	2.3	.	-15.8	.

The listing picks up, starting 2 compounds before the break.
SMILES	PD-1 reversal	YB-1 expression	MITF inh	Shh pathway inh
COc1cc2cc(C)nc(Cc3cccc4ccccc34)c2cc1OC	-1.8	0.116	17.8	?
Cc1ccc(S(=O)(=O)N(CC(=O)O)c2ccc(C)c(C)c2)cc1	2.3	.	-15.8	.
COc1ccc(N(C(C)=O)S(=O)(=O)c2cc(OC)ccc2OC)cc1	0.6	.	-11.6	.
COc1cc(=O)n(C)c2c(OCC(O)C(C)(C)O)cccc12 (centres undefined)	.	-0.714	-12.8	-5.2
C[C@H]1CN([C@@H](C)CO)C(=O)c2cc(N(C)C)ccc2O[C@H]1CN(C)C(=O)Nc1ccc(F)cc1	1.0	-0.0131	-6.5	16.2
COc1ccc(NC(=O)Nc2cccc3c2O[C@H](CN(C)C(=O)Nc2ccccc2)[C@@H](C)CN([C@@H](C)CO)C3=O)cc1	.	-0.768	-40.5	-2.9
O=c1[nH][nH]c(=O)n1CCCc1cc2cccc3ccc4cccc1c4c32	0.3	-0.706	-16.2	19.0
C=C1C(=O)O[C@H]2C1[C@H](OC(=O)/C(=C/CO)COC(=O)/C(C)=C/CO)CC(=C)[C@@H]1CC(=O)[C@@H](C)[C@@H]12 (some centres undefined)	-6.1	-0.292	12.1	15.6
c1ccc(-c2ccc(OCCCCSc3ncccn3)cc2)cc1	0.4	.	-29.4	.
CC(=O)c1cccc(NC(=O)CN(Cc2ccccc2)S(C)(=O)=O)c1	-0.7	.	-20.4	.
COc1ccc(/C=C/C(=O)c2cc(O)ccc2O)cc1	.	-0.143	-65.4	-46.9
C[C@H]1CN([C@@H](C)CO)C(=O)c2cccc(NC(=O)C3CCCCC3)c2O[C@H]1CN(C)C(=O)Nc1ccc(F)cc1	-0.4	-0.344	2.8	-20.0
C[C@H](CO)N1C[C@H](C)[C@H](CN(C)Cc2ccccc2)Oc2c(NC(=O)Nc3ccc(F)cc3)cccc2C1=O	-0.9	-0.523	15.8	3.6
C[C@@H]1CN([C@@H](C)CO)C(=O)c2cccc(NC(=O)NC3CCCCC3)c2O[C@H]1CN(C)S(=O)(=O)c1ccc(Cl)cc1	-0.5	-0.403	-2.2	-58.2
C[C@@H]1CN([C@H](C)CO)C(=O)c2cccc(NS(=O)(=O)c3ccc(Cl)cc3)c2O[C@H]1CN(C)S(=O)(=O)c1ccc(Cl)cc1	2.1	0.145	-3.3	18.3
O=C(O)C1C2CCC(C2)C1C(=O)c1ccccc1 (centres undefined)	1.8	0.207	20.5	-23.2
C[C@H]1OC(=O)c2c(O)ccc(O)c2[C@H]1O	.	0.021	.	0.9
COc1cc(-c2nnc(SCC(=O)c3ccco3)n2C)cc(OC)c1OC	-1.3	0.217	2.8	17.6
CC(C)NC(=O)Nc1ccc2c(c1)CC(=O)N([C@H](C)CO)C[C@H](C)[C@H](CN(C)C(=O)Nc1ccc3c(c1)OCO3)O2	0.9	0.177	-16.3	-35.1
O=C(Nc1ccccc1)Nc1ccc2nnsc2c1	1.2	-0.527	-20.3	-63.0
C[C@@H]1CN([C@@H](C)CO)C(=O)Cc2cc(NS(=O)(=O)c3ccc(Cl)cc3)ccc2O[C@@H]1CN(C)Cc1ccc2c(c1)OCO2	-0.6	0.0753	-14.3	14.9
COc1ccc(S(=O)(=O)N(C)C[C@H]2Oc3ccc(NS(=O)(=O)c4ccccc4)cc3C(=O)N([C@@H](C)CO)C[C@@H]2C)cc1	0.3	0.417	-0.3	.
Cc1noc(C)c1NC(=O)N(C)C[C@H]1Oc2ccc(NS(=O)(=O)c3ccc(Cl)cc3)cc2CC(=O)N([C@@H](C)CO)C[C@@H]1C	1.9	-0.0441	-0.1	-14.8
COc1ccccc1Nc1nc(N)nc(-c2oc3ccccc3c2C)n1	-4.9	.	-12.3	.
Cc1noc(C)c1NC(=O)Nc1ccc2c(c1)C(=O)N([C@H](C)CO)C[C@H](C)[C@H](CN(C)S(=O)(=O)c1cn(C)cn1)OCCCC[C@@H](C)O2	2.9	0.176	-11.8	-6.3
C[C@@H]1CN([C@H](C)CO)C(=O)c2cccc(NS(C)(=O)=O)c2O[C@H]1CN(C)S(=O)(=O)c1ccc(F)cc1	3.0	-0.537	-5.6	-12.4
COc1ccc(NC(=O)Nc2ccc3c(c2)CC(=O)N([C@H](C)CO)C[C@H](C)[C@H](CN(C)C(=O)NC2CCCCC2)O3)cc1	1.2	0.0864	-8.8	-3.8
COc1ccc(-c2[nH]nc(SC)c2C#N)cc1	-0.1	0.054	6.6	.
CCn1c(SCC(=O)Nc2ccccc2C)nnc1-c1ccc(Br)cc1	3.2	.	-7.4	.
C[C@@H]1CN([C@H](C)CO)C(=O)c2cccc(NS(=O)(=O)c3cccs3)c2O[C@H]1CN(C)Cc1ccc(C(F)(F)F)cc1	1.9	0.236	-11.8	-2.6
CC1OC(O[C@H]2[C@@H](O)C[C@@]3(C)C(CC[C@]4(C)C3CC=C3[C@@H]5CC(C)(C)CC[C@]5(C(=O)OC5OC(C)C(OC6OCC(OC7OCC(O)C(OC8OCC(O)C(O)C8O)C7O)C(O)C6O)C(O)C5O)CC[C@]34C)[C@]2(C)CO)C(O)C(OC2OC(CO)C(O)C(O)C2O)C1O (some centres undefined)	1.0	-0.677	-24.4	-18.8
C[C@H](CO)N1C[C@H](C)[C@H](CN(C)C(=O)Nc2cccc3ccccc23)Oc2ccc(NS(=O)(=O)c3ccccc3)cc2C1=O	.	-0.152	15.7	.
c1ccc(-c2noc(CSc3nnc(C4CC4)n3-c3ccccc3)n2)cc1	-1.1	.	0.7	.
O=C1c2cc(O)cc(O)c2C(=O)c2c(O)cc(CO)cc21	1.0	-0.18	4.9	1.6
O=C(NCc1ccccn1)Nc1ccc(F)cc1F	4.3	.	-79.5	.
C[C@H](CO)N1C[C@H](C)[C@H](CN(C)Cc2ccc(C(=O)O)cc2)Oc2c(NC(=O)Nc3ccc4c(c3)OCO4)cccc2C1=O	1.6	1.36	-10.5	-25.2
CC(=O)O[C@]1(C(C)=O)CCC2C3C=C(C)C4=CC(=O)CCC4(C)C3CCC21C (some centres undefined)	.	-0.266	-5.4	22.8
CC(C)NC(=O)Nc1ccc2c(c1)CC(=O)N([C@@H](C)CO)C[C@H](C)[C@@H](CN(C)C(=O)Nc1ccc3c(c1)OCO3)O2	-0.2	-0.768	8.7	21.3
O=C(Nc1ccc(C23CC4CC(CC(C4)C2)C3)cc1)c1cccs1	0.4	0.218	17.8	.
C[C@@H]1CN([C@H](C)CO)C(=O)c2cc(NS(=O)(=O)c3ccc(Cl)cc3)ccc2O[C@H]1CN(C)Cc1ccc(-c2ccccc2)cc1	1.2	0.169	2.7	-8.9
CC(C)NC(=O)N(C)C[C@@H]1Oc2c(NC(=O)NC3CCCCC3)cccc2C(=O)N([C@H](C)CO)C[C@H]1C	0.5	-0.0489	-4.0	-11.7
Cc1ccc(S(=O)(=O)Nc2ccc3c(c2)CC(=O)N([C@@H](C)CO)C[C@H](C)[C@H](CN(C)S(=O)(=O)c2ccc(Cl)cc2)O3)cc1	.	-0.359	10.4	-6.4
CC1CCCC2OC2C(=O)c2c(O)cc(O)cc2CC(=O)O1 (centres undefined)	1.6	0.224	1.7	-18.7
CC(=O)N1CN(C2CCS(=O)(=O)C2)Cc2c1sc1c2CCCC1 (centres undefined)	-0.6	0.233	24.3	10.5
C[C@@H]1CN([C@H](C)CO)C(=O)Cc2cc(N(C)C)ccc2O[C@@H]1CN(C)C(=O)Nc1ccccc1	.	0.168	-36.2	0.3
C[C@H](CO)N1C[C@H](C)[C@H](CN(C)S(=O)(=O)c2cn(C)cn2)Oc2ccc(NC(=O)C3CC3)cc2C1=O	.	0.0598	8.0	.
C[C@@H]1CN([C@H](C)CO)C(=O)c2cc(NC(=O)CCCCCC(=O)Nc3ccccc3N)ccc2O[C@H]1CN(C)C(=O)Nc1ccc(C(F)(F)F)cc1	-0.1	0.101	1.0	.
C[C@H](CO)N1C[C@H](C)[C@H](CN(C)C(=O)Nc2ccccc2)Oc2ccc(NC(=O)Cc3cn(C)c4ccccc34)cc2C1=O	-1.3	-0.315	10.6	4.8
Cc1ccc(S(=O)(=O)Nc2ccc3c(c2)C(=O)N([C@@H](C)CO)C[C@@H](C)[C@H](CN(C)C(=O)Nc2ccc4c(c2)OCO4)O3)cc1	0.8	-0.16	-3.5	.
Cc1ccc(S(=O)(=O)Nc2ccc3c(c2)CC(=O)N([C@H](C)CO)C[C@@H](C)[C@H](CN(C)C(=O)Nc2c(C)noc2C)O3)cc1	.	-0.187	-6.2	-26.4
Cc1cc(C)n(CCS(=O)(=O)c2ccc(Cl)cc2)n1	0.4	-1.42	-13.3	8.2
COc1ccc(S(=O)(=O)Nc2cccc3c2O[C@H](CN(C)S(=O)(=O)c2cn(C)cn2)[C@H](C)CN([C@@H](C)CO)C3=O)cc1	2.5	2.88	1.5	-24.6
O=C(COc1ccc(Cl)cc1Cl)Nc1ccc(O)c(-c2nc3ccccc3s2)c1	0.4	.	15.1	.
CN1CCc2cc3c(cc2C(=O)Cc2ccc4c(c2C1)OCO4)OCO3	1.3&3.3	0.611&-0.23	7.1&6.3	8.0&-12.8
C[C@@H]1CN([C@@H](C)CO)C(=O)c2cc(NC(=O)C3CC3)ccc2O[C@H]1CN(C)C(=O)Nc1ccc(F)cc1	0.0	-0.126	-6.5	-2.2
CC(C)NC(=O)Nc1ccc2c(c1)CC(=O)N([C@H](C)CO)C[C@@H](C)[C@@H](CN(C)Cc1ccc(-c3ccccc3)cc1)O2	-2.6	-0.275	11.8	9.0
CN(C)C(=O)Oc1cccc([N+](C)(C)C)c1	.	0.293	4.3	-1.2
